Calb biofilm kill: clotrimazole potentiators killing C. albicans biofilm, primary screen, 4-compound mixtures; C. albicans biofilm persisters + clotrimazole, fluorescence viability; primary screen in compound mixtures of four per well; inhibition, % at 7.6 µM; 120,000 compounds, 0.02% hits; AID 1242, 2008;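 active = inhibition above 30.3% in the primary screen of four-compound pools, then above 30% when the compound was retested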;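 note: compounds exposed to preformed 24 h biofilms for 48 h; the number belongs to the whole pool; some results filed as inactive read as strong as hits; inactives centre near 12; 0% = biofilm with clotrimazole alone and 100% = kill control; retested singly at about 60 µM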
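Incubation: 24 h biofilm formation, then 48 h compound exposure, 37 °C | Material: C. albicans biofilms | Buffer or medium: RPMI/MOPS medium, pH 7.0 | Measured by: 2-h Alamar Blue fluorescence, 535/590 nm excitation/emission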
* = called active by the depositor. The list is partial; rates above refer to the full screens.

For CCCC(=O)N/N=C1\CS(=O)(=O)N(C)c2ccsc21 the results were Calb biofilm kill -2.5.
For c1ccc(-c2nn[nH]n2)cc1 the results were Calb biofilm kill 27.7.
CC(C(=O)O)N1C(=O)C2C3CC(C2C1=O)C1C(c2ccccc2)c2sc(=O)[nH]c2SC31 (stereo unspecified) was read as Calb biofilm kill 3.3.
For COc1ccc(C)cc1-n1nnnc1SCC(=O)NNC(=O)c1ccc([N+](=O)[O-])cc1 the results were Calb biofilm kill 22.3.
COc1cc(/C=C/C(=O)O)cc(S(=O)(=O)Nc2ccc3nc(SC)sc3c2)c1OC was read as Calb biofilm kill 3.0.
Screening C#CC(C)(C)NC(=O)c1ccc(-c2ccccc2F)cc1 returned Calb biofilm kill 16.5.
Screening CNC(=S)NCc1ccc2[nH]c3c(c2c1)CCCC3 returned Calb biofilm kill 8.9.
For CC1CC(C)CN(C(=O)CSc2ccsc2[N+](=O)[O-])C1 (stereo unspecified) the results were Calb biofilm kill 7.4.
For Cc1ccc(/C=N/NC(=O)CNC(=O)c2cccs2)o1 the results were Calb biofilm kill 9.1.
O=C(Nc1ccc(F)c([N+](=O)[O-])c1)c1ccc2c(c1)C(=O)OC2=O was read as Calb biofilm kill 10.9.
`O=C(O)COc1ccccc1/C=N/NC(=O)CN1CCN(Cc2ccccc2Cl)CC1` gave Calb biofilm kill 20.9.
`Cc1nn(-c2ncc(C(F)(F)F)cc2Cl)c(=O)n1-c1c(F)cccc1F` gave Calb biofilm kill 13.7.
For CC1CCCCC1NC(=O)/C(C#N)=C/c1ccc(OCC(N)=O)cc1 (stereo unspecified) the results were Calb biofilm kill 11.3.
`CC(=O)NCCCC(=O)NC(CCC(=O)OCc1ccccc1)C(=O)OCc1ccccc1` (stereo unspecified) gave Calb biofilm kill 0.4.
Screening CCNc1nc(NC(C)C)nc(OCCOC(=O)Nc2ccccc2)n1 returned Calb biofilm kill 7.4.
Screening Cc1cc(Nc2ccccc2)nc2cc(O)ccc12 returned Calb biofilm kill 16.2.
For CN(CCC#N)C(=O)CSc1nc2scc(-c3ccccc3)c2c(=O)[nH]1 the results were Calb biofilm kill 11.8.
For Cc1ccc(S(=O)(=O)N2CCCCC2)cc1NC(=O)c1ccc2c(c1)OCO2 the results were Calb biofilm kill 12.6.
Screening COc1ccc(CCc2nnc(CCC(=O)NCc3cnc4ccccn34)o2)cc1 returned Calb biofilm kill -16.4.
O=C(c1ccc(S(=O)(=O)NCC2CCCO2)cc1)N1CCN(c2cccc(Cl)c2)CC1 (stereo unspecified) was read as Calb biofilm kill 4.0.

Compounds listed so far that have a nitro group on carbon (three):
For COc1ccc(C)cc1-n1nnnc1SCC(=O)NNC(=O)c1ccc([N+](=O)[O-])cc1 the results were Calb biofilm kill 22.3.
For CC1CC(C)CN(C(=O)CSc2ccsc2[N+](=O)[O-])C1 (stereo unspecified) the results were Calb biofilm kill 7.4.
O=C(Nc1ccc(F)c([N+](=O)[O-])c1)c1ccc2c(c1)C(=O)OC2=O was read as Calb biofilm kill 10.9.

(next part)
`Cc1ccc(N2C(=O)CC(c3c[nH]c4ccccc34)C2=O)cc1` (stereo unspecified) gave Calb biofilm kill 16.7.
For Cc1ccc(C(CC(=O)NCCCN(C)C)c2ccc(OC(C)C)cc2)cc1 (stereo unspecified) the results were Calb biofilm kill 8.8.
CCNC(=S)N1CCN(c2ccccn2)CC1 was read as Calb biofilm kill 11.2.
`CCCNC(=S)Nc1cccc(C(F)(F)F)c1` gave Calb biofilm kill -4.2.
Screening CC(C)OCc1c(C(=O)Nc2nccs2)oc2ccccc12 returned Calb biofilm kill 8.9.
Screening Cc1c(Cl)cccc1NCC(=O)Nc1ccc(Cl)cc1F returned Calb biofilm kill 13.2.
`C=CCNC(=O)NC(=O)COC(=O)[C@H](C)NS(=O)(=O)c1c(C)c(C)cc(C)c1C` gave Calb biofilm kill 16.6.
For Cc1ccnc(SCc2cc(=O)c(OC(=O)c3cccs3)co2)n1 the results were Calb biofilm kill 12.4.
Screening CC1CCCC(NC(=O)C2CCN(S(=O)(=O)N3CCCCC3)CC2)C1C (stereo unspecified) returned Calb biofilm kill 7.7.
S=C(Nc1ccc2c(c1)OCO2)Nc1ccc2c(c1)OCO2 was read as Calb biofilm kill 14.8.
For Cc1ccc(/C=N\NC(=O)C2CC(=O)N(c3ccccc3)C2)o1 (stereo unspecified) the results were Calb biofilm kill 36.0.
For COc1ccc(C)c2sc(=NC(=O)c3cccc(N4C(=O)CCC4=O)c3)n(C)c12 the results were Calb biofilm kill 24.9.
`O=C(N=C1c2ccccc2CN1c1ccccc1)c1cccc([N+](=O)[O-])c1` gave Calb biofilm kill 18.9.
`O=C(O)c1nn(CC(=O)N2CCN(S(=O)(=O)c3ccc(Cl)cc3)CC2)c(=O)c2ccccc12` gave Calb biofilm kill 13.3.
Cc1ccc(NC(=O)CNc2ccccc2CN(C)C2CCCCC2)cc1 was read as Calb biofilm kill 10.6.
`Cc1nc(Cl)c2c(n1)NC1=C(O2)C(=O)CCC1` gave Calb biofilm kill 6.7.
Screening CCCN(CCC)CCCNC(=S)Nc1ccc2nc(N3CCN(CC)CC3)cc(C)c2c1 returned Calb biofilm kill 0.1.
`CC(C)c1nnc(NC(=O)C2CCCN2C(=O)Nc2ccccc2[N+](=O)[O-])s1` (stereo unspecified) gave Calb biofilm kill 5.5.
For CC(=O)c1cccc(NC(=O)Cc2coc3cc4c(cc23)CCC4)c1 the results were Calb biofilm kill 15.2.
COc1cc(-c2nc3ccccn3c2/N=C/c2cc(OC)c(O)cc2Cl)ccc1O was read as Calb biofilm kill 10.2.

Five compounds already listed, sorted by length of the SMILES, ascending:
`Cc1nc(Cl)c2c(n1)NC1=C(O2)C(=O)CCC1` gave Calb biofilm kill 6.7.
Cc1ccc(NC(=O)CNc2ccccc2CN(C)C2CCCCC2)cc1 was read as Calb biofilm kill 10.6.
For Cc1ccc(/C=N\NC(=O)C2CC(=O)N(c3ccccc3)C2)o1 (stereo unspecified) the results were Calb biofilm kill 36.0.
For CC(=O)c1cccc(NC(=O)Cc2coc3cc4c(cc23)CCC4)c1 the results were Calb biofilm kill 15.2.
Screening CCCN(CCC)CCCNC(=S)Nc1ccc2nc(N3CCN(CC)CC3)cc(C)c2c1 returned Calb biofilm kill 0.1.

Following part
O=C(O)c1ccccc1Nc1ccc([N+](=O)[O-])cc1 was read as Calb biofilm kill 9.3.
O=C(O)C1CCCN1S(=O)(=O)c1cccc2nsnc12 (stereo unspecified) was read as Calb biofilm kill 3.5.
`O=C1c2ccccc2C(=O)N1CCCCN(C(=O)c1cc2ccccc2oc1=O)c1ccc(Cl)cc1` gave Calb biofilm kill -16.4.
CC(=O)NC1C2CN3CCN(C2)CC1(Cc1ccccc1)C3 (stereo unspecified) was read as Calb biofilm kill 14.4.
CC(C)=CC(=O)OCC(=O)Nc1cc(C)ccc1C was read as Calb biofilm kill 11.3.
`COc1ccc(OC)c(NC(=O)Nc2cc(NC(=O)Nc3cc(OC)ccc3OC)c(C)nc2C)c1` gave Calb biofilm kill 15.0.
O=C1c2ccccc2C(=O)N1Cc1cccnc1 was read as Calb biofilm kill 21.0.
`NS(=O)(=O)c1ccc(C(=O)O)cc1` gave Calb biofilm kill 9.6.
CO/N=C/C(NC(=O)c1ccc(C(F)(F)F)cc1)C(=O)OC (stereo unspecified) was read as Calb biofilm kill 20.4.
Screening CC(C)CCNC(=O)[C@H](CSCc1ccccc1)N1Cc2ccccc2C1=O returned Calb biofilm kill 9.3.
For COc1cc(C2/C(=C(/O)c3ccccc3)C(=O)C(=O)N2c2ccccn2)ccc1O (stereo unspecified) the results were Calb biofilm kill 22.9.
`O=C1c2ccccc2C(=O)c2c1cccc2-n1nnc2ccccc21` gave Calb biofilm kill 24.6.
Cc1c(C#N)c2ccccc2n1C was read as Calb biofilm kill 27.6.
For O=C(Cc1c[nH]c2ccccc12)NNC(=O)c1ccccc1 the results were Calb biofilm kill 15.2.
O=C(Cc1ccccc1)N1CCN=C1SCc1cccc([N+](=O)[O-])c1 was read as Calb biofilm kill 3.8.
`CCOc1ccc(N(C(=O)CNC(=O)c2ccco2)C(C(=O)NC2CCCC2)c2ccncc2)cc1` (stereo unspecified) gave Calb biofilm kill 13.7.
Screening Fc1ccc(-n2c(-c3ccc4c(c3)OCO4)n[nH]c2=S)cc1Cl returned Calb biofilm kill 12.1.
`Cc1cccc(NC(=O)NNC(=O)c2nn(C)cc2Br)c1` gave Calb biofilm kill 18.7.
For Oc1ccc(C(c2nnnn2C2CCCCC2)N2CCOCC2)cc1 (stereo unspecified) the results were Calb biofilm kill 23.0.
`COCCCN(C(=S)NC(=O)C12CC3CC(CC(C3)C1)C2)c1c(N)n(Cc2ccccc2)c(=O)[nH]c1=O` gave Calb biofilm kill 10.4.
Screening Cc1ccccc1NC(=O)COc1ccc2c(c1)OC(C)(C)CC2=O returned Calb biofilm kill 3.8.
Screening CS(=O)(=O)N1CC2CCCN2c2ccc(C(F)(F)F)cc21 (stereo unspecified) returned Calb biofilm kill 8.8.
`COc1ccc(NC(=O)c2c3c(nc4ccccc24)CCC3)cc1S(=O)(=O)N1CCOCC1` gave Calb biofilm kill 1.9.
For O=C(CN1C(=O)CNC1=O)Nc1ccc(Cl)cc1 the results were Calb biofilm kill 17.3.
`COc1ccc(S(=O)(=O)N2CCCC2C(=O)NCc2ccccc2Cl)cc1` (stereo unspecified) gave Calb biofilm kill 21.5.
`COC(=O)C(CCCN1C(=O)c2ccccc2C1=O)(NC(C)=O)c1nn[nH]n1` (stereo unspecified) gave Calb biofilm kill 8.9.
`Cc1ccc(NC(=O)CCn2nc([N+](=O)[O-])cc2C)nc1` gave Calb biofilm kill 9.1.
Nc1cc(F)ccc1N1CCCCCC1 was read as Calb biofilm kill 7.2.
COCc1cc(C)n(CC(=O)OC)c(=O)c1C#N was read as Calb biofilm kill 4.2.
For CCOCCCNC(=O)C(NC(=O)c1ccc(NC(C)=O)cc1)c1ccc(Cl)cc1 (stereo unspecified) the results were Calb biofilm kill 12.1.
`O=C(/C=N/O)NCCCN1CCOCC1` gave Calb biofilm kill 7.9.
Screening O=c1[nH]c(CNCc2cccnc2)nc2ccccc12 returned Calb biofilm kill 7.4.
COc1ccccc1N=Cc1c(O)c2ccccc2oc1=O was read as Calb biofilm kill 6.8.
For COc1ccc(-n2c(-c3ccc(Br)cc3)c[n+]3c2CCC3)cc1 the results were Calb biofilm kill -3.2.
Screening CN1C(=O)/C(=C/c2ccco2)SC1=Nc1cccc(C(=O)O)c1 returned Calb biofilm kill 15.2.
O=C(/C=C/c1ccco1)N1CCc2ccccc21 was read as Calb biofilm kill 4.7.
`O=S(=O)(c1ccc(Cl)nc1)N1CCCc2ccccc21` gave Calb biofilm kill 21.4.
Screening S=c1[nH]nc(-c2ccncc2)n1/N=C/c1cn(-c2ccccc2)nc1-c1ccccc1 returned Calb biofilm kill 7.7.
O=S(=O)(c1ccccc1)C(/C=N\O)/C=C/c1ccccc1 (stereo unspecified) was read as Calb biofilm kill 17.8.
For O=C(CSC1CCCCC1)Nc1ccccc1Br the results were Calb biofilm kill 8.1.

The list goes on, overlapping the part above by four compounds.
`O=S(=O)(c1ccc(Cl)nc1)N1CCCc2ccccc21` gave Calb biofilm kill 21.4.
Screening S=c1[nH]nc(-c2ccncc2)n1/N=C/c1cn(-c2ccccc2)nc1-c1ccccc1 returned Calb biofilm kill 7.7.
O=S(=O)(c1ccccc1)C(/C=N\O)/C=C/c1ccccc1 (stereo unspecified) was read as Calb biofilm kill 17.8.
For O=C(CSC1CCCCC1)Nc1ccccc1Br the results were Calb biofilm kill 8.1.
COc1ccc(-c2n[nH]c(=S)n2-c2ccc3c(c2)OCCO3)cc1 was read as Calb biofilm kill 15.7.
CCc1ccc(OCC(=O)N2CCN(c3ccccc3F)CC2)cc1 was read as Calb biofilm kill 11.8.
Screening CN(C)/C=C(\C#N)C(=O)Nc1ccc(F)c(Cl)c1 returned Calb biofilm kill 22.7.
Screening O=C(Nc1ccccc1C(=O)O)/C(=C/c1ccc([N+](=O)[O-])cc1)NC(=O)c1ccc(Br)o1 returned Calb biofilm kill 5.1.
`COc1cccc(CN(CC2CCCO2)S(=O)(=O)c2ccc(-n3cnnn3)c(OC)c2)c1` (stereo unspecified) gave Calb biofilm kill 12.8.
`COc1ccc2cc(CN(Cc3ccco3)C(=S)NCC3CCCO3)c(=O)[nH]c2c1` (stereo unspecified) gave Calb biofilm kill 6.9.
`CCOCCCNC(=S)N(Cc1ccco1)Cc1cc2cc3c(cc2[nH]c1=O)OCCO3` gave Calb biofilm kill 23.4.
`COC(=O)c1cc(OC)c(OC)cc1NC(=O)Cc1cccs1` gave Calb biofilm kill 13.6.
`Cc1ccc(C(=O)Oc2cccc(NC(=O)c3ccccc3)c2)cc1C` gave Calb biofilm kill 9.7.
Cc1cc(Cl)ccc1C(=O)C1CCCN(C(=O)c2n[nH]c3c2CCCC3)C1 (stereo unspecified) was read as Calb biofilm kill 9.0.
Screening CCC(=O)Nc1ccc(-c2csc(NNC(C)=O)n2)cc1 returned Calb biofilm kill 10.7.
For CCCOP(=O)(OCCC)C(Nc1ccc(C(=O)O)cc1)c1ccccc1 (stereo unspecified) the results were Calb biofilm kill -9.4.
`N#C/C(C(N)=O)=C1/SC(Cc2ccc(F)cc2)C(=O)N1c1ccccc1` (stereo unspecified) gave Calb biofilm kill 18.3.
For O=C(Nc1ccccc1Oc1ccccc1)c1cc([N+](=O)[O-])ccc1Cl the results were Calb biofilm kill 18.3.
Cc1cccc(NC(=S)NC(=O)c2ccco2)n1 was read as Calb biofilm kill 5.2.
Screening Cc1cc(C(=O)NNC(=O)c2ccc(C(F)(F)F)cc2)no1 returned Calb biofilm kill 0.8.
For FC(F)(F)c1cnc(NNC(=S)Nc2ccccc2Cl)c(Cl)c1 the results were Calb biofilm kill 27.5.
`COc1ccc(NC(=S)NCCc2c[nH]c3ccccc23)cc1` gave Calb biofilm kill 15.1.
`CCOP(=O)(OCC)/C(=N/OC(=O)c1ccccc1C)C(N)=O` gave Calb biofilm kill 8.0.

Source: PubChem
